Source: PubChem (ICCB-Longwood Screening Facility, Harvard Medical School)
S aureus helic = blocks Staphylococcus aureus DNA helicase | 120,000 compounds, 0.05% hits | purified S. aureus helicase, fluorescence unwinding assay; about half of the hits fall short of the stated cut | inhibition, %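 (tested at about 80 µM)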;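 active = both duplicates at 50% or more, or one of them with a favoured structure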;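 also: 0% = mean of negative control wells and 100% = mean of positive control wells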
MgrA DNA FP = S. aureus MgrA-DNA binding modulation; fluorescence polarization; inhibition, %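 (about 10 µg/mL by stock and volumes)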; 84,000 compounds, 0.13% hits; AID 602314;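 active = above 50% in either of two replicates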;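 also: 0% = protein plus DNA without compound and 100% = DNA alone without protein; higher means less MgrA bound to DNA so lower polarization; one replicate is shown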
* hit, by the source's call; . = no result given. Only part of the results is shown. The share of hits here may be higher or lower than overall.

Every second line gives: S aureus helic | MgrA DNA FP
> CN(n1cnc2ccsc2c1=O)S(=O)(=O)c1cc(C(F)(F)F)cc(C(F)(F)F)c1
 : . | -1.1
> CC(C)C(c1nnnn1Cc1ccccc1)N1CCCc2ccccc21 (stereo unspecified)
 : 4 | -13
> CCCS(=O)(=O)NCCc1cc2ccc(C)c(C)c2[nH]c1=O
 : -23 | .
> CCCOC(=O)c1ccc(N=Cc2ccc(C)s2)cc1
 : 8 | -3.8
> CC(C)COC(=O)n1c(=O)oc2ccc(S(=O)(=O)N3CCCCC3)cc21
 : -24 | .
> O=C(c1cccs1)N(Cc1nc2sc3c(c2c(=O)[nH]1)CCCC3)C1CCCC1
 : 15 | 0.8
> CN(C(=O)C(Cl)Cl)c1ccc(OC(=O)c2ccco2)cc1
 : . | 3.0
> COc1ccc(C(=O)COC(=O)CCn2c(C)csc2=O)cc1Cl
 : -2 | .
> CCOc1ccnc(SCC(=O)CC(=O)c2ccccc2)c1C#N
 : 0 | 5.9
> O=CNCCc1c[nH]c2ccccc12
 : 2 | 0.8
> O=C(CCSc1ccccc1)Nc1nc(-c2cccs2)cs1
 : -10 | .
> CN(C)CCCO[C@H]1[C@@H](C(O)CO)OC2OC(C)(C)O[C@@H]21 (stereo partly specified)
 : . | 4.3
> Fc1ccc(CSc2ncnc3ccccc23)cc1
 : -20 | .
> COc1ccc(CNc2ccc(-c3ccc(OC)cc3)nn2)cc1
 : 14 | -3.2
> CNS(=O)(=O)c1cn(CC(=O)NC2CCCC2)cc1S(=O)(=O)NC
 : 4 | .
> N#C/C(=C\c1cccnc1)c1cccs1
 : . | -0.1
> COc1ccc2c(=O)c(Oc3ccccc3)coc2c1
 : 12 | 0.1
> O=C(NCCOc1ccc(Cl)cc1)c1cccs1
 : 9 | 1.8
> NC(=O)c1c(NC(=O)CSc2nc(-c3cccs3)cc(C(F)(F)F)n2)sc2c1CCC2
 : 6 | 0.4
> CCN(CC)S(=O)(=O)c1ccc(C(=O)Nc2nnc(-c3ccc(Cl)cc3Cl)s2)cc1
 : . | -1.2
> O=C(OCc1ccc(F)cc1)c1cc(-c2ccco2)nc2ccccc12
 : 1 | .
> Cc1cccc(COc2ccccc2C(=O)O)c1
 : -9 | .
> CC(C)(C)OC(=O)N/N=C\c1ccc[nH]1
 : -8 | .
> O=C(CCCn1sc2ccccc2c1=O)NCCC1=CCCCC1
 : 27 | .
> CCc1ccccc1NC(=O)Cn1nnc(C(=O)NCc2ccccc2)c1N
 : 18 | 0.2
> CCC(CO)NC(=O)c1cc2sc3ccccc3c2s1 (stereo unspecified)
 : 9 | -2.8
> O=C(O)CSc1nc2ccccc2n1Cc1ccccc1
 : . | 3.2
> COc1ccccc1Nc1nnc(-c2ccc(OC(C)C)c(OC)c2)o1
 : 17 | .
> N#C/C(=C\c1ccc(Cl)c(Cl)c1)c1nn(-c2ccccc2)c(-n2cccc2)c1C#N
 : . | 4.4
> CCN(CC)c1nc(-c2cccs2)c(C(=O)c2ccc(N3C(=O)CCC3=O)cc2)s1
 : 11 | .
> COc1ccccc1NC(=O)C(C)NS(=O)(=O)c1ccccc1 (stereo unspecified)
 : 9 | 4.8
> CC(C)(C)c1ccc(-c2cc3ncc(-c4ccccc4)c(N)n3n2)cc1
 : 9 | 0.7
> COc1ccc(/C=C2\Cc3ccccc3C2=O)cc1
 : 11 | -0.6
> CC1=C(C(=O)OCCOc2ccccc2)C(c2coc3ccc(Cl)cc3c2=O)C2=C(CC(C)(C)CC2=O)N1 (stereo unspecified)
 : . | -0.5
> O=C(/C=C/NCc1ccccc1)c1ccc(Br)cc1
 : -1 | 1.3
> CCC(SC1=Nc2ccccc2C2=NC(c3ccccc3)C(=O)N12)C(=O)NCc1ccco1 (stereo unspecified)
 : 32 | .
> CSC(=Nc1cc(-c2ccccc2)[nH]n1)Nc1ccccc1
 : 6 | -4.1
> CCOC(=O)c1cc(C(=O)OCC)c(=S)[nH]c1O
 : 12 | -0.2
> Brc1ccc2[nH]ccc2c1
 : . | 0.0
> CCc1cccc(NC(=O)CSc2nc3c(c(=O)[nH]2)CCCC3)c1
 : 12 | 0.8
> CCOC(=O)C1CCN(S(=O)(=O)c2ccc3c(c2)CCO3)CC1
 : . | 0.1
> COC(=O)c1cnc(N2CCN(c3ccccc3)CC2)c2ccccc12
 : 5 | .
> Cc1cc(CNC(=O)c2cnc3ccccc3n2)c(C(F)(F)F)o1
 : . | -0.3
> O=C(c1ccccc1)C1(C(=O)c2ccccc2)CC1c1ccccc1 (stereo unspecified)
 : . | 2.9
> Cc1noc(C)c1CSc1nc(-c2cccs2)c(-c2cccs2)[nH]1
 : 5 | .
> Cn1ncc(Cl)c1C(=O)NC(=S)Nc1sc2c(c1C#N)CCCC2
 : 1 | -2.5
> O=C(Nc1ccccc1)N(C1=NCCCCS1)c1ccccc1
 : 1 | -1.9
> COc1ccccc1C1(CCNC(=O)c2ccccc2C(=O)O)CCOC(C)(C)C1 (stereo unspecified)
 : 10 | .
> COc1ccccc1NC(=O)c1ccc(-c2ccccc2)s1
 : 2 | -2.0
> COc1ccc(/C(=N/O)c2nccc3cc(OC)c(OC)cc23)cc1OC
 : 16 | -1.4
> CCN(CC)c1ncnc2sc(-c3ccccc3)cc12
 : . | 0.2
> CN(c1ccc(C(=O)N2CCc3ccccc3C2)cc1)S(C)(=O)=O
 : 6 | -1.6
> COC(=O)c1ccc(C(=O)Nc2sccc2C#N)cc1
 : -16 | .
> COC(=O)c1ccsc1NC(=O)c1cccc(C)c1
 : 3 | .
> CCOC(=O)NCc1n[nH]c(=O)c2ccccc12
 : 2 | .
> CCOC(=O)N1CCC(NCC(O)COc2ccccc2C(C)C)CC1 (stereo unspecified)
 : -3 | .
> COc1cccc(-c2ocnc2C(=O)NC2CCc3ccccc32)c1 (stereo unspecified)
 : 5 | -2.2
> Cc1c(-c2csc(-c3ccno3)n2)sc2ccccc12
 : . | -2.9
> CCc1ccccc1NC(=O)NCCN1CCN(c2ccccc2)CC1
 : 5 | 1.5
> CCCCN(C)S(=O)(=O)c1cc2c(cc1C)N(C(C)=O)CCO2
 : -20 | .

Next entries
Every second line gives: S aureus helic | MgrA DNA FP
> O=C(NCc1ccco1)c1cc(-c2ccc(F)cc2)nc2ccccc12
 : 6 | 2.2
> CC(=O)N1CCC(N(CCCN2CCC(C)CC2)C(=O)Nc2ccc(Br)c(C)c2)CC1
 : 3 | .
> CC1CCN(CC(=O)Nc2ccc3ccccc3c2)CC1
 : 10 | -1.4
> CC(C)(C)Oc1ncc(Br)c(OC(C)(C)C)n1
 : 6 | 0.8
> O=C(NCc1ccccc1)C(NS(=O)(=O)c1cccs1)c1ccccc1 (stereo unspecified)
 : 3 | -0.8
> COc1ccc(-c2cc(C(F)(F)F)nc(N3CCOCC3)n2)cc1
 : 4 | 1.4
> N=c1c(C(=O)NCC2CCCO2)cc2c(=O)n3ccccc3nc2n1CCCN1CCOCC1 (stereo unspecified)
 : 18 | 3.5
> CCOc1ccc2nc(SCC(=O)N(C)C)[nH]c2c1
 : -15 | -3.8
> Cc1cccc(NC(=O)c2ccc3c(c2)CCCC3)n1
 : 3 | .
> COC(=O)c1sc(=S)n(-c2ccccc2)c1C
 : -19 | .
> COc1cccc(NC(=O)Cn2ncc3c4ccccc4n(Cc4ccccc4)c3c2=O)c1
 : 6 | -1.3
> C/C=N/NC(=O)c1ccccc1
 : 12 | -2.5
> COc1ccc2c(C)cc(NN)nc2c1
 : 2 | .
> CCOC(=O)c1oc2ccc(S(=O)(=O)N3CCC(c4nnc(-c5ccc(OC)cc5)o4)CC3)cc2c1C
 : 20 | .
> Cc1nnn(C23CC4CC(CC(C(=O)O)(C4)C2)C3)n1
 : 3 | -2.5
> C=C1N(c2ccc(Cl)cc2)C(=O)OC12CCCCC2
 : 7 | -7.8
> O=c1c2ccccc2c(-c2cc(C(F)(F)F)cc(C(F)(F)F)c2)nn1CCO
 : . | 0.9
> O=C(OCCCn1c(=O)[nH]c2ccccc21)c1ccc2c(=O)n3c(nc2c1)CCCCC3
 : 15 | .
> COc1cccc(CSc2ccc(S(=O)(=O)N3CCOCC3)cc2C(=O)N2CCC3(CC2)OCCO3)c1OC
 : . | -1.9
> Fc1ccc2c(c1)-c1nocc1CS2
 : -18 | .
> COC(=O)c1c(C)oc(C)c(C(=O)OC)c1=O
 : -7 | .
> CC1CCN(C(=O)c2cc(Cl)nc3ccccc23)CC1
 : 1 | 0.6
> O=C(CS(=O)(=O)Cc1ccccc1)Nc1cc(F)cc(F)c1
 : 9 | 0.4
> CCOC(=O)c1nc(NCCCN2CCN(c3cc(C)ccc3C)CC2)c2ccccc2n1
 : 0 | .
> CCN(CCS(=O)(=O)c1ccc(Cl)cc1)S(=O)(=O)c1ccc(Cl)cc1
 : . | -2.0
> CC1CN(C(=O)c2ccc(N)cc2)CC(C)O1 (stereo unspecified)
 : 12 | -1.5
> COc1ccccc1NC(=O)CSc1cc(=O)n(C)c2ccccc12
 : -22 | .
> CC(C)CSC1=NSC2=NC(=O)/C(=C\c3ccc(SCc4ccco4)o3)C(=N)N12
 : -72 | .
> CCCn1c2ccccc2c2nnc(SCC(=O)Nc3ccc4c(c3)OCCO4)nc21
 : 6 | .
> CN(C)S(=O)(=O)c1cccc(CSc2n[nH]c(-c3cccs3)n2)c1
 : 6 | .
> COc1ccc2c(c1)nnc1n[nH]c(=O)n12
 : . | 0.7
> O=C(NC(=O)N1CCSCC1)c1ccccc1Cl
 : . | 2.1
> Cc1cc(C(=O)CSc2nc3ccccc3c(=O)[nH]2)c(C)n1C
 : -2 | .
> Cc1ccc(Nc2nnc(C3C(=O)N(C)C4(C)CC3c3cc(Br)ccc3O4)s2)cc1 (stereo unspecified)
 : 4 | 4.5
> COC(=O)c1ccc(OCC(=O)c2ccc[nH]2)cc1
 : -8 | .
> CCc1ccc(-c2nc(CN3CCCC(C(=O)NCc4ccc(Cl)cc4)C3)c(C)o2)cc1 (stereo unspecified)
 : 2 | .
> NC(N)=N/N=C/c1c(Cl)cccc1Cl
 : . | 5.2
> O=C(Oc1ccccc1)c1ccc(CSc2ccc(C(F)(F)F)cn2)o1
 : . | -1.1
> O=C(O)c1ccc(CS(=O)(=O)c2ccccc2)o1
 : 8 | 29
> CCN1C(=O)C(O)(C2COC(C)(C)CC2=O)c2ccccc21 (stereo unspecified)
 : . | -0.5
> CC(C)CCn1nc(C(=O)OCC#N)c2ccccc2c1=O
 : -1 | .
> COc1cccc(C(=O)c2sc3nsc(SCc4ccccc4)c3c2N)c1
 : . | 19
> O=C(Cc1ccc(S(=O)(=O)N2CCCC2)s1)Nc1nc2c(s1)CCCC2
 : 10 | .
> O=C(OCc1ncc(-c2ccccc2)o1)c1nc(-c2ccccc2)n(-c2ccccc2)n1
 : -9 | .
> O=P(CCCO)(Cc1ccccc1)Cc1ccccc1
 : 17 | .
> O=C(Cc1ccccc1)c1cccs1
 : 2 | 3.5
> Cc1cccc(CN2CCC(CNC(=O)c3cc4cc5ccc(C)cc5nc4o3)CC2)c1
 : 9 | -2.5
> Cc1cc(-c2nnc(C(F)(F)F)o2)ccc1-n1cccc1
 : . | -1.5
> C=CCNC(=O)Cc1c(O)c2ccccc2[nH]c1=O
 : 1 | 2.6
> CCN1CCN(c2ccc(N=Cc3cc(I)ccc3O)cc2)CC1
 : -18 | 9.4
> NC(=O)c1ccc(-n2nnnc2-n2ccnc2)cc1
 : 2 | -0.6
> Cc1ccc(N2C(=O)CC(Nc3ccc(N4CCOCC4)cc3)C2=O)c(C)c1 (stereo unspecified)
 : -20 | .
> COc1ccc(C2CC(=O)C3=C(C2)Nc2ccccc2NC3c2cc(Br)ccc2OC)cc1 (stereo unspecified)
 : . | -0.7
> CC(O)c1nc2cc3ccccc3cc2[nH]1 (stereo unspecified)
 : -11 | 1.8
> CCOC(=O)C1CCN(C(=O)c2cc(C)nn2C(C)(C)C)CC1
 : . | -0.8
> CC(C)Cn1c(=S)[nH]c2ccccc21
 : 0 | 3.2
> CC1CN(S(=O)(=O)c2ccc(C(=O)Nc3ccccc3)cc2)CC(C)O1 (stereo unspecified)
 : -12 | -0.1
> O=S(=O)(Cc1nc(CSc2ccccn2)cs1)c1ccc(Cl)cc1
 : . | -2.8
> Nc1c(S(=O)(=O)c2ccccc2)nnn1-c1ccc(OC(F)(F)F)cc1
 : -8 | 0.1
> CCN(CCNCc1c(C(=O)O)n(C)c2ccccc12)c1ccccc1
 : -7 | .

Continued:
Every second line gives: S aureus helic | MgrA DNA FP
> CS(=O)(=O)Nc1ccc(C#N)cc1
 : 21 | .
> COc1ccc(C2CC(=O)C3=C(C2)NC(C)=C(C(=O)OC(C)C)C3c2cc(Cl)c(O)c(OC)c2)cc1 (stereo unspecified)
 : . | 2.5
> CC(N=C1NS(=O)(=O)c2ccccc21)C(=O)N1CCN(S(=O)(=O)c2cccs2)CC1 (stereo unspecified)
 : -16 | .
> O=S(=O)(Nc1ccc(O)cc1)c1cccs1
 : 15 | -1.5
> CCOc1ccc(CNC(=O)c2cc(=O)[nH]c3ccccc23)cc1
 : -2 | -0.8
> Cc1ccc2c(c1)cc(CN(Cc1ccco1)C(=O)NCc1ccccc1)c1nnnn12
 : 2 | 11
> CSc1ccccc1Sc1cc(C(=O)NCc2ccco2)c2ccccc2n1
 : 10 | 0.9

Of the compounds above, these have bromine.
Every second line gives: S aureus helic | MgrA DNA FP
> O=C(/C=C/NCc1ccccc1)c1ccc(Br)cc1
 : -1 | 1.3
> Brc1ccc2[nH]ccc2c1
 : . | 0.0
> CC(=O)N1CCC(N(CCCN2CCC(C)CC2)C(=O)Nc2ccc(Br)c(C)c2)CC1
 : 3 | .
> CC(C)(C)Oc1ncc(Br)c(OC(C)(C)C)n1
 : 6 | 0.8
> Cc1ccc(Nc2nnc(C3C(=O)N(C)C4(C)CC3c3cc(Br)ccc3O4)s2)cc1 (stereo unspecified)
 : 4 | 4.5
> COc1ccc(C2CC(=O)C3=C(C2)Nc2ccccc2NC3c2cc(Br)ccc2OC)cc1 (stereo unspecified)
 : . | -0.7
